Screening data: PubChem BioAssay, National Center for Advancing Translational Sciences (NCATS)
Six1-Eya2 blk – Six1/Eya2 interaction inhibition | AlphaScreen GST-Six1/His-Eya2 binding, biochemical; stronger effect = lower value; control for the full effect not named in the record | activity change, % (concentration not given with the values) | hit rate 0.56% among 360,000; in the data active = activity change below about -65%; inconclusive = about -30% to -65%; inactive = above about -30%; further: on the % scale 0 is the no-effect control and ±100 the full control effect
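AlphaScreen with GST-Six1 and His-Eya2 (5X mix: 250 nM and 500 nM), glutathione donor and nickel acceptor beads; buffer 50 mM Tris pH 8.0, 300 mM NaCl, 1 mM TCEP; 1 h at 37 C in the dark.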
gsp antagonist – antagonizes gsp, the McCune-Albright syndrome mutation; gsp-mutant cells, cAMP HTRF, 30 min; control for the full effect not named in the record; hit rate 0.4% among 340,000; AID 624288; Potency, µM (highest dose often 76.9 µM), inactives show top-dose activity change, negative = inhibition, most hits filed as inhibitors; active = falling curve of any shape with a large fitted effect; inconclusive = falling curve, mostly with a smaller effect; inactive = flat or rising curve; cell line not stated here;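 further: intracellular cAMP measured with PDE inhibitor Ro 20-1724 present during compound exposure; potency means the concentration at half of the fitted maximal effect; on the % scale 0 is the no-effect control and ±100 the full control effect; nearly all actives have a fitted effect of over 65% in size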
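HTRF cAMP measurement after 30 min RT detection following 30 min, 37C compound treatment alongside […] (added as 300 uM solution) in G418-selected cells seeded at 2000/well and grown 16–24 h.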
gsp ag – agonists of gsp mutant (McCune-Albright syndrome) | gsp mutant cells, cAMP HTRF, 30 min; control for the full effect not named in the record | hit rate 0.13% among 340,000 | AID 624287 | Potency, µM (titrated, usually from 76.9 µM), without a hit: top-dose activation (cAMP increase), usual class: activators; active = well fitted activation curve with a large enough effect; inconclusive = small, poorly fitted or top-dose-only effect, or another doubt; inactive = no such curve, though single readings can be large or run the other way; cell line not stated here;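 further: phosphodiesterase inhibitor Ro 20-1724 added with compounds to block cAMP breakdown; potency means the concentration at half of the fitted maximal effect; nearly all actives have a fitted effect of over 60% in size; about a fifth of the inactives were tested at one dose only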
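Cells stably selected in G418 were plated at 2000/well, grown 16-24 hr, then given compounds in DMSO with the PDE inhibitor […] (300 uM solution added) for 30 min at 37C; cAMP was read by HTRF.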
CtBP-E1A blk – inhibitors of CtBP/E1A interaction | AlphaScreen GST-E1A/His-CtBP binding, 1536-well; stronger effect = lower value; control for the full effect not named in the record | activity change, % (concentration not given with the values) | hit rate 0.49% among 340,000 | AID 651724; in the data active means activity change below about -65%; inconclusive means about -30% to -65%; inactive means above about -30%; further: on the % scale 0 is the no-effect control and ±100 the full control effect
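AlphaScreen with 125 nM GST-E1A and 125 nM His-CtBP (5X stocks) in Tris pH 8.0, 300 mM NaCl, BSA, Tween 20, TCEP. Compounds preincubated 2 h at 37 deg C, then glutathione donor/nickel acceptor beads added for 1 h at 37 deg C in dark.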
D2 potentiator – human D2 receptor positive allosteric modulation; P14416; DiscoveRx D2 beta-arrestin cells, luminescence, 90 min; 100% = 57 uM dopamine signal; potentiation, % (no concentration beside the values); hit rate 0.23% among 360,000; active = potentiation of 50% or more; inconclusive = 30% to 50%; inactive = 30% or less;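 further: compound concentration not given in the record; tested on top of an EC20 dose of dopamine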
Target sequence (P14416 whole entry, looked up): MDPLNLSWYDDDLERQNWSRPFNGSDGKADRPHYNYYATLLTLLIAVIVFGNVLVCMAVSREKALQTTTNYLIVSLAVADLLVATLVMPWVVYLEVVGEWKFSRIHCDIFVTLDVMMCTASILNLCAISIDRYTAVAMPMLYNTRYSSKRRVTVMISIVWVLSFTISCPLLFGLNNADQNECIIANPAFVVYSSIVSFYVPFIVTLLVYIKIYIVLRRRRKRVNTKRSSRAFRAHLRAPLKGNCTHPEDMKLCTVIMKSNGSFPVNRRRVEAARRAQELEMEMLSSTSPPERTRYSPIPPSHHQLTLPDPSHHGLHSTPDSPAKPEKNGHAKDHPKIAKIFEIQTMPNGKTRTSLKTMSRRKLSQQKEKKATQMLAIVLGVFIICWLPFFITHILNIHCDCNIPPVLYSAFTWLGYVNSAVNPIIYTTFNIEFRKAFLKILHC
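PathHunter beta-arrestin assay in DiscoveRx D2 cells. Compounds were added with an EC20 of dopamine (50 nM final) for 90 min at 37 deg C. Luminescence was read 1 h after detection reagent, with 57 uM dopamine as the EC100 control.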
D2 agonist – human D2 receptor agonism in beta-arrestin assay; hit rate 0.084% among 360,000; P14416; activation, % (no concentration beside the values); DiscoveRx PathHunter D2 beta-arrestin, luminescence, 90 min; 100% = 57 uM dopamine signal; in the data active = activation above about 40%; inconclusive = about 15% to 40%; inactive = below about 15%; further: compound concentration not given in the record; the text of the record calls up to 30% inactive
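DiscoveRx PathHunter D2 beta-arrestin cells (2,100/well) attached overnight, then compound-stimulated 90 min at 37 C in HBSS/10 mM HEPES/0.1% Tween-20 buffer; beta-galactosidase complementation read by luminescence after 1 h at ambient temperature. Dopamine 57 uM final (EC100) as control.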
Active calls of the source: *; u = inconclusive; x = not tested or not shown; & = joins results of further samples; [ ] = dose if it differs, or a comment.

SMILES	Six1-Eya2 blk	gsp antagonist	gsp ag	CtBP-E1A blk	D2 potentiator	D2 agonist
CN1C(=O)/C(=C/c2ccc(OCc3ccc(F)cc3)cc2)NC1=S	3	1%	2%	8	1	5.0
C=CCn1c(C)csc1=Nc1ccc(C(C)=O)cc1	-3	-7%	11%[15.4 µM]	x	-4	-2.3
Cc1nn(C)cc1C1C(C#N)=C(N)N(c2cccnc2)C2=C1C(=O)CCC2 (stereo not drawn)	5	8%	11%[15.4 µM]	0	-3	-5.6
COc1cc(/C=N/NC(=O)c2cccc(C)c2)ccc1OCC(=O)Nc1ccccc1	-30	-25%	-12%[15.4 µM]	4	-6	-1.3
COc1ccc(/C=C/C(=O)N[C@@H](C)C(=O)O)cc1	2	1%	-8%[15.4 µM]	-1	0	-2.7
O=C(Cn1nc(C(F)(F)F)c2c1CCC2)Nc1ccccc1C(F)(F)F	5	14%	10%	7	-18	-3.2
COCCNC(=O)c1cc2cc(Br)cc(Br)c2oc1=O	-1	2%	32%	2	-5	-1.7
O=C(NC1CCCC1)C(=O)N(Cc1cccnc1)C(C(=O)NCc1ccco1)c1ccccc1F (stereo not drawn)	16	4%	0%	-12	-6	-3.6
CCOC(=O)C1(C)CCN1C(=O)c1cccc2ccccc12 (stereo not drawn)	0	x	x	4	-4	-3.5
c1cnc(-c2nnc3n2CCCCC3)cn1	3	5%	u	34	-10	-1.9
CCOC(=O)c1c(C)[nH]c(C)c1C(=O)COC(=O)/C=C/c1ccc(OC(F)F)cc1	-17	-15%	0%	-6	5	1.4
O=C(NC1CCCCCC1)c1cccc(COCC(F)(F)F)c1	8	-1%	-34%[inhibitor]	1	-5	0.4
COc1ccc(NC(=O)CSc2nc3[nH]c(=O)cc(O)c3s2)cc1OC	0	2%	-30%[inhibitor]	6	8	-7.6
CCCC(=O)NCc1nc2ccccc2n1C	1	5%	-5%	-27	-3	-0.6
COC[C@@H]1NS(=O)(=O)c2ccc(Br)cc2O[C@H]1c1ccccc1	0	-12%	x	1	-2	-1.1
CC1N=C2c3ccccc3N=C(SCc3cc(=O)n4cc(Cl)ccc4n3)N2C1=O (stereo not drawn)	-4	22%	u	5	-7	1.1
N#Cc1cc2c(nc1SCc1cccnc1)CCCCC2	-3	-9%	17%	-15	-11	2.6
CCC/C=C/c1ccc(CN2C(C(C)C)C(=O)N(Cc3cn(CCOCOC)nn3)CCS2(=O)=O)cc1 (stereo not drawn)	5	x	4%	-20	2	-9.7
Cc1ccc2[nH]c(C(=O)N/N=C/c3ccccc3C(=O)O)c(-c3ccccc3)c2c1	2	-14%	10%	2	-3	6.3
CN1CCN(c2ccc(CNC(=O)c3ccc4c(c3)OCCO4)cc2)CC1	25	12%	-2%[15.4 µM]	0	-31	-5.0
COc1cc2nn(-c3ccccc3N)nc2cc1OC	7	x	u	7	-6	-0.7
C=CCc1cc(C)cc(C)c1OCCn1cncn1	17	18%	0%	29	-34	-3.8
S=C(NN=Cc1ccccn1)Nc1ccccn1	-92*	x	u	-74*	-21	u
COc1ccc(Cl)cc1NC(=O)C(=O)N/N=C/c1cc(C)n(-c2ccc(C)cc2)c1C	-9	3%	-3%	7	-4	0.1
O=C(NN=Cc1ccccc1O)C(O)(c1ccccc1)c1ccccc1	-2	12%	u	-1	-10	-3.2
Cc1nc(C2CC(=O)OC23CCCCC3)cs1 (stereo not drawn)	6	2%	u	12	-3	-1.1
COc1cccc(OCC(O)CN2CCN(c3ccccc3)CC2)c1 (stereo not drawn)	-2&-6	3%&9%	17%&-13%	2	0&-8	u
O=C(c1ccc2ccccc2c1)N1CCc2ccccc21	11	-10%	-4%[15.4 µM]	2	-9	-2.0
CCCCN(Cc1cccs1)S(=O)(=O)c1ccc(-c2ccc(=O)[nH]n2)s1	-1	-9%	2%	0	-4	-2.3
Cn1c(SCC(=O)c2ccccc2)nnc1-c1ccc(O)cc1	-4	6%	17%	0	17	1.3
Cn1ccc2c(-c3ccc(C(N)=O)cc3)cc3c(c21)C1CCC3O1 (stereo not drawn)	2	x	x	3	3	4.6
COc1ccc(-c2cc(C(=O)NCCCN3CCOCC3)on2)cc1OC	0	-1%	30%	-19	-17	1.0
O=C(COC(=O)CNC(=O)C1CCCCC1)Nc1cccc(F)c1	3	1%	5%	7	3	-0.3
O=[N+]([O-])c1cccc(C2=NCCC(c3ccccc3)O2)c1 (stereo not drawn)	-8	6%	x	-21	-9	1.7
CC(=O)NCCC(=O)Nc1ncc(S(=O)(=O)c2ccc([N+](=O)[O-])cc2)s1	4	2%	-49%[inhibitor]	-18	52*	9.6
CCN(CCS(=O)(=O)c1ccc(Cl)cc1)C(=O)Nc1ccccc1	5	-4%	-1%[15.4 µM]	4	-15	1.2
CN(C)C(=O)c1c(NC(=O)c2ccco2)sc2c1CCCCC2	-1	-10%	-38%[inhibitor]	8	20	-1.3
COc1ccc(CN(C)C(=O)c2cc(-c3ccccc3)nc3ccc(C)cc23)c(OC)c1OC	-9	u	-13%	-5	19	u
O=C(CSC1CC(=O)N(CCc2ccccc2)C1=O)Nc1cccc(Cl)c1 (stereo not drawn)	2	3%	0%[15.4 µM]	-9	-9	2.1
Cc1cc(C)c(S(=O)(=O)N2CCCOC2CNC(=O)C(=O)NCc2ccccn2)c(C)c1 (stereo not drawn)	7	11µM*	24%[15.4 µM]	2	3	-1.0
Cc1nnc(SC(C)C(=O)NC2CCCc3ccccc32)n1-c1ccccc1 (stereo not drawn)	-1	2%	-15%	-12	-7	-2.0
O=C(O)CCS(=O)(=O)c1cc(Br)cc2c1N(C(=O)C1CC1)CC2	-12	5%	-6%[15.4 µM]	0	9	-2.2
Nc1nc(-c2ccccc2)c(-c2ccccc2)s1	-4	-31%	1%	-3	6	-2.5
Cc1nnc(SCC(=O)NC2CCCCC2)n1C1CCCCC1	0	13%	-39%[inhibitor]	4	26	-2.0
Cc1ccccc1C(=O)Nc1ccc(S(=O)(=O)N2CCN(C)CC2)cc1	-3	2%	-13%	3	5	-4.8
COc1ccccc1N1CCN(C(=O)c2ccccc2SCC(=O)N2CCCC2)CC1	6	-4%	0%	0	5	-1.5
O=C1C(=Cc2ccco2)CCC1=Cc1ccco1	-83*	6%	-1%[15.4 µM]	-1	-16	-3.9
CCOC(=O)c1c(S(=O)(=O)N2CCCC2)c(C)n(C)c1C	2	5%	u	-1	-7	0.1
O=C(OCN1C(=O)c2ccccc2C1=O)c1ccco1	7	5%	-7%	3	-9	-4.7
N#CCCCCN1c2cccc3cccc(c23)S1(=O)=O	8	-3%	-43%[inhibitor]	10	-2	-4.6
Clc1cccc(CSc2nnc(-c3ccccn3)n2Cc2ccco2)c1	-14	-10%	18%	-28	-15	0.0
COc1ccc(Br)cc1[C@H]1[C@H]2C=CC[C@@H](C)[C@@H]2C(=O)N1Cc1ccccc1	-2	-13%	x	0	-8	-0.6
O=C(Nc1ccon1)c1ccc(S(=O)(=O)N2CCCCCC2)cc1	1	-7%	-38%[inhibitor]	1	3	0.8
COc1ccc(-n2c(=O)c3ccccc3n(Cc3ccccc3F)c2=O)cc1OC	-6	6%	7%	-16	-9	-1.5
CC1=NN(C(C)C)C(=O)C1	-1	13%	8%	5	-9	-3.3
Cc1cc(C(=O)Nc2ccc3[nH]ccc3c2)no1	2	8%	12%[15.4 µM]	-3	0	4.3
Cc1ccc(C)c(NC(=O)CN(C)C(=O)CCN2C(=O)c3ccccc3C2=O)c1	-7	-5%	-37%[inhibitor]	4	-7	-2.7
CN(CC(=O)NCCCn1ccnc1)S(=O)(=O)c1ccc(Cl)cc1	13	7%	22%	x	-21	-3.0
COCCn1c(SCC(=O)NC2CC2)nc2ccccc21	-1	3%	-9%	x	-1	6.4
Cc1ccc(-c2csc(NC(=O)CCNC(=O)c3ccccc3Cl)n2)cc1	-2	u	-43%[inhibitor]	x	-9	-6.8

Reformatted with each value named: four of the compounds above
> Clc1cccc(CSc2nnc(-c3ccccn3)n2Cc2ccco2)c1
  Six1-Eya2 blk = -14; gsp antagonist = -10%; gsp ag = 18%; CtBP-E1A blk = -28; D2 potentiator = -15; D2 agonist = 0.0
> COc1ccccc1N1CCN(C(=O)c2ccccc2SCC(=O)N2CCCC2)CC1
  Six1-Eya2 blk = 6; gsp antagonist = -4%; gsp ag = 0%; CtBP-E1A blk = 0; D2 potentiator = 5; D2 agonist = -1.5
> O=C1C(=Cc2ccco2)CCC1=Cc1ccco1
  Six1-Eya2 blk = -83*; gsp antagonist = 6%; gsp ag = -1%[15.4 µM]; CtBP-E1A blk = -1; D2 potentiator = -16; D2 agonist = -3.9
> N#CCCCCN1c2cccc3cccc(c23)S1(=O)=O
  Six1-Eya2 blk = 8; gsp antagonist = -3%; gsp ag = -43%[inhibitor]; CtBP-E1A blk = 10; D2 potentiator = -2; D2 agonist = -4.6

The listing continues.
SMILES	Six1-Eya2 blk	gsp antagonist	gsp ag	CtBP-E1A blk	D2 potentiator	D2 agonist
Cc1c(C(=O)N2CCN(Cc3ccccc3)CC2)sc2ncnc(N3CCOCC3)c12	-2	-13%	7%	1	-5	-1.7
CC1CCc2c(C(=O)Nc3cccc(-c4nn[nH]n4)c3)csc2C1 (stereo not drawn)	-8	u	-1%	-19	-13	-2.5
CCn1cc(S(=O)(=O)Nc2ccccc2C(F)(F)F)cn1	0	8%	-1%[15.4 µM]	3	-3	1.8
C#CCN(C(=O)CC1C(=O)NCCN1C/C=C/c1ccccc1)C1CCCCC1 (stereo not drawn)	0	8%	-1%[15.4 µM]	0	-4	-3.6
COCc1ccc(CN2CCCC(CCC(=O)NCc3cccc(OC)c3)C2)o1 (stereo not drawn)	-12	2%	15%	-3	0	3.6
c1ccc(OCCOc2ncnc3ccccc23)cc1	-1	0%	-32%[inhibitor]	3	7	-2.8
CCN(CC(=O)Nc1c(F)cccc1F)C(=O)Cc1n[nH]c(=O)c2ccccc12	4	0%	10%[15.4 µM]	3	-36	-5.6
CC(NC(=O)OC(C)(C)C)C(=O)N1CCCC1C(=O)NC(Cc1ccccc1)C(N)=O (stereo not drawn)	7	11%	u	2	-6	-2.7
Cc1noc(/C=C/c2ccco2)c1S(=O)(=O)N1CCC(C(=O)N2CCc3ccccc32)CC1	-6	-11%	-1%	-9	-1	-1.7
Cc1cc(F)ccc1NC(=O)c1ccc(NS(=O)(=O)c2cc(C(C)(C)C)ccc2C)cc1	-2	u	3%	5	-8	-1.0
O=C(O)CC(Cc1ccc(Cl)cc1)C(=O)NCC12CC3CC(CC(C3)C1)C2 (stereo not drawn)	-1	-3%	2%	x	-3	-5.6
O=C(c1ccco1)N1CCN(c2ccc(Cl)cc2)CC1	-2	-1%	-46%[inhibitor]	-11	-1	-2.6
COc1ccc(C)cc1-n1[nH]nnc1=S	7	6%	-37%[inhibitor]	8	0	2.3
COc1ccc2oc(=N)c(C(=O)Nc3ccccc3Cl)cc2c1	-12	11%	-9%	x	-4	2.6

Rows were taken by chance, and some 1.4% of all compounds hit somewhere here.
